Compound activity (PubChem BioAssay)
HTT promoter inh = HTT promoter inhibition; HEK293 HTT promoter firefly luciferase reporter (activity 0% = vehicle and -100% = no light), 24 h; Potency, µM (doses to about 57.5 µM), for the others: at the top dose activity change, negative = inhibition, usual class: inhibitors; 48,000 compounds, 0.93% hits; active = well fitted inhibition curve with a large enough effect; inconclusive = small, poorly fitted or top-dose-only effect; inactive = no such curve, though single readings can be large or run the other way; note: nearly all actives have a fitted effect of over 50% in size
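Firefly luciferase signal from promoter-reporter HEK293 cells was scaled between vehicle (0%) and zero RLU (-100%). Compounds were tested at final concentrations of up to 57.5 uM over 24 h at 37 degrees C. PTC124 at 50 uM final served as control inhibitor.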
PMP22 txn = PMP22 gene transcription modulation. Potency, µM (top dose mostly 57.5 µM), without a hit: at the highest dose activity change, negative = inhibition, usual class: inhibitors. 43,000 compounds, 2% hits. S16 Pmp22-F2sN Schwann cells (luciferase reporters placed in the Pmp22 gene), FLuc/NLuc coincidence luminescence, 24 h; active = clear falling dose curves in both reporters; inconclusive = both reporters move, but less clearly or upward; inactive = either reporter flat; the % is the NLuc reporter signal; note: % is set by controls: 0 for no effect and ±100 for the full control effect; some results filed as inactive show a strong effect at the top dose
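Schwann cells carrying the coincidence reporter were exposed to library compounds for 24 h at 37C, then lysed and read for FLuc and, after quenching, NLuc luminescence on a CCD imager.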
* hit, by the source's call; ? = inconclusive; . = no result given; [ ] = another dose, or the depositor's remark. Potency is the fitted concentration of half-maximal effect.

The opening 2 records, to show the layout:
No.	Structure	HTT promoter inh	PMP22 txn
1	O=C(Cn1nnc2sc(-c3ccccc3)cc2c1=O)Nc1cccc(C(F)(F)F)c1	-12%	-9%
2	Cn1cnc(S(=O)(=O)N2CCCC(C(=O)Nc3ccc(OC(F)(F)F)cc3)C2)c1 (stereo not given)	-27%	2%

The listing, repeating the preview:
No.	Structure	HTT promoter inh	PMP22 txn
1	O=C(Cn1nnc2sc(-c3ccccc3)cc2c1=O)Nc1cccc(C(F)(F)F)c1	-12%	-9%
2	Cn1cnc(S(=O)(=O)N2CCCC(C(=O)Nc3ccc(OC(F)(F)F)cc3)C2)c1 (stereo not given)	-27%	2%
3	Cc1ccc(Nc2c(-c3ccc(C)s3)nc3ncccn23)cc1	60%[activator]	8%
4	CCOc1ccccc1NC(=O)CN1C(=O)C2(SCC(=O)N2c2cccc(F)c2)c2ccccc21 (stereo not given)	-17%	-2%
5	CCc1cccc(C)c1NC(=O)Cn1cnc2c1c(=O)n(C)c(=O)n2C	?	-24%
6	Cc1ccc(NC(=O)Cn2c(=O)n(Cc3ccccc3)c(=O)c3c(C)c(C(=O)N(C)C)sc32)c(C)c1	0%	1%
7	Cc1nc(N2CCCC2)ncc1C(=O)N1CCN(c2ccccc2F)CC1	-5%	6%
8	CC(C)N(C(=O)Cn1cc(S(=O)(=O)Cc2ccc(Br)cc2)c2ccccc21)C(C)C	-12%	-1%
9	CC1(C)CC(=O)c2cc(-c3nc(-c4ccc(Cl)cc4)cs3)c(=O)n(-c3ccc(Cl)cc3)c2C1	-18%	-21%
10	COc1ccc(C)cc1NC(=O)Cn1c(=O)cc(C)c2c(C)nn(C)c21	2µM*	7.6µM*
11	COCCNc1ncnc2onc(-c3ccc(F)cc3)c12	-6%	-14%
12	O=S(=O)(c1ccc(F)cc1)N1CCC(Oc2ccc(-n3cnnn3)cc2)CC1	-3%	3%
13	Cc1ccc(NC(=O)c2ccc(=O)n(CC(=O)Nc3cc(C)cc(C)c3)n2)cc1	-13%	?
14	Cc1ccc(CNC(=O)Cn2cc3c(n2)-c2c(oc(C(=O)N4CCOCC4)c2C)CC3)cc1	?	-7%
15	COc1ccc(CCNc2nc3c(c(=O)n(C)c(=O)n3C)n2Cc2ccccc2Cl)cc1OC	-30%	?
16	CCOC(=O)c1c(S(=O)(=O)NCC(=O)Nc2cccc(SC)c2)c(C)n(C)c1C	1%	-5%
17	COc1ccc(-n2cc(-c3ccc4c(c3)OCO4)n(CC(=O)Nc3cccc(C)c3)c2=O)cc1	-13%	7%
18	Cc1c(Cl)cccc1NC(=O)CCS(=O)(=O)c1cccc2nsnc12	-8%	?
19	Cc1ccc(CO)cc1Nc1ncnc2onc(-c3ccc(F)cc3)c12	-14%	-17%
20	CC(=O)c1ccc(NC(=O)c2cnn(-c3cccc(F)c3)c2-n2cccc2)cc1	?	12%
21	CCOC(=O)c1ccc(NC(=O)C2CCCN(c3ncnc4onc(-c5ccc(F)cc5)c34)C2)cc1 (stereo not given)	-25%	-8%
22	O=C(NCCc1csc(-c2cccc(F)c2)n1)c1ccccc1C(F)(F)F	?	?
23	COc1cccc2cc(-c3nc(Nc4cccc(C)c4)sc3C)c(=O)oc12	-23%	?
24	CC(=O)N1CCCc2cc(S(=O)(=O)N3CCC(C(=O)NC4CCCCC4)CC3)ccc21	-20%	-27%
25	COc1ccc(OC)c(CNC(=O)C(C)n2c(C)c3cnn(-c4ccccc4)c(=O)c3c2C)c1 (stereo not given)	-22%	-15%
26	COc1ccc(-c2nc3ccccc3o2)cc1NC(=O)COc1cc(C)cc(C)c1	-3%	-6%
27	CCOc1ccccc1N1CC(c2nc3ccccc3n2CCCCOc2cc(C)ccc2C)CC1=O (stereo not given)	-6%	-24%
28	CC(=O)OCC[N+](C)(C)C	10%	.
29	CCOC(=O)c1ccc(OCC2c3cc(OC)c(OC)cc3CCN2C(=O)Cc2ccc(OC)c(OC)c2)cc1 (stereo not given)	-15%	5%
30	CC1CN(C(=O)N2CCC(C(=O)NCc3cccs3)CC2)c2ccccc2O1 (stereo not given)	-10%	9%
31	COc1ccc(OCC(=O)N2CCN(C(=O)c3ccc(OC)cc3)CC2)cc1	-7%	3%
32	CC1=C(C(=O)Nc2ccccc2C)C(c2ccncc2)n2nc(SCc3ccccc3Cl)nc2N1 (stereo not given)	-15%	15%
33	CCCCN(CC)CCCNC(=O)CCN1N=C(c2ccc(OC)cc2)CCC1=O	-18%	-9%
34	Cc1c(-c2cccc3c(CCCOc4cccc5ccccc45)c(C(=O)O)n(Cc4cccnc4)c23)c(COc2ccc(N3CCN([S+](=O)([O-])N(C)C)CC3)cc2)nn1C	?	.
35	CC=CCC=CCCC(=O)[C@H]1O[C@@H]1C(N)=O	7%	.
36	Cc1ccccc1CNC(=O)c1ccc2c(c1)N(Cc1ccccc1)CCS2	-9%	?
37	CCCCCNC(=O)c1c[nH]c2ccc(S(=O)(=O)N3CCC(C)CC3)cc2c1=O	-14%	?
38	Cc1ccc(NC(=O)CN2C(=O)C(c3ccc(C)cc3)=NC23CCCCCC3)cc1	?	?
39	Cc1nn(C(=O)c2cccc(F)c2)c(C)c1S(=O)(=O)N1CCOCC1	-16%	-16%
40	O=C(NCCc1ccc(Cl)cc1)C(=O)NCC(c1ccc2c(c1)OCO2)N1CCOCC1 (stereo not given)	0%	-20%

Records 38–40 from above:
No.	Structure	HTT promoter inh	PMP22 txn
38	Cc1ccc(NC(=O)CN2C(=O)C(c3ccc(C)cc3)=NC23CCCCCC3)cc1	?	?
39	Cc1nn(C(=O)c2cccc(F)c2)c(C)c1S(=O)(=O)N1CCOCC1	-16%	-16%
40	O=C(NCCc1ccc(Cl)cc1)C(=O)NCC(c1ccc2c(c1)OCO2)N1CCOCC1 (stereo not given)	0%	-20%

Next section:
No.	Structure	HTT promoter inh	PMP22 txn
41	Cc1nn(S(=O)(=O)c2ccc(F)cc2)c(C)c1S(=O)(=O)N1CCCCCC1	-8%	-2%
42	CCCCC(CC)CNC(=O)CN(C)S(=O)(=O)c1ccc2c(c1)c(=O)n(C)c(=O)n2C (stereo not given)	-8%	?
43	COc1ccc(-n2c(=O)c3ccccc3n(Cc3ccccc3C)c2=O)c(OC)c1	?	-22%
44	O=C(Nc1ccc2nc(SCC(=O)N3CCCC3)sc2c1)c1ccccc1F	-19%	?
45	CCOC(=O)C1CCN(C(=O)c2c(C)nn(-c3ccc(F)cc3)c2-n2cccc2)CC1	-28%	0%
46	Cc1ccc(CN2CCSc3ccc(C(=O)N4CCN(c5ccc(Cl)cc5)CC4)cc32)cc1	?	?
47	Cc1ccc(C(=O)Nc2ccc3[nH]c(=O)c(=O)[nH]c3c2)cc1	2%	-34%
48	COc1cccc(-n2c(=O)c3c(C)c(C)sc3n(Cc3ccccc3C#N)c2=O)c1	-17%	-1%
49	Cc1cc(NC(=O)N2CCC(CN3CCCCCC3)CC2)ccc1Br	9%	-53%
50	Cc1nn2c(=O)cc(COC(=O)c3ccccc3NC(=O)C3CCCCC3)nc2s1	-11%	-2%
51	CC1=C(C(=O)NCc2ccc(C)cc2)C2(CCCCC2)OC1=O	-21%	-38%
52	COc1cccc(Cn2nnc3c(=O)[nH]c(C4CCN(C(=O)c5ccccc5Cl)CC4)nc32)c1	-21%	-15%
53	COc1ccc(OC)c(-n2c(=O)[nH]c3cc(C(=O)NCCc4ccc(OC)c(OC)c4)ccc3c2=O)c1	-13%	-29%
54	COc1ccc(N2C(=O)CSC23C(=O)N(CC(=O)Nc2ccccc2F)c2ccccc23)cc1 (stereo not given)	-12%	?
55	Cc1ccc(CN(Cc2ccco2)c2cnc(S(C)(=O)=O)nc2C(=O)Nc2ccccc2Br)o1	?	?
56	CCOc1ccc(OCC(=O)NCCS(=O)(=O)N2CCN(c3ccccc3F)CC2)cc1	?	8%
57	COc1ccc(-c2cn3nc(SCC(=O)Nc4cc(C)cc(C)c4)ccc3n2)cc1	36%[activator]	-2%
58	COc1ccc2c(c1)CCCC2=O	15%	.
59	CCN1CCc2nc(N)oc2CC1	6%	.
60	COc1ccc(Cl)cc1NC(=O)CSc1nc(=O)n(Cc2ccco2)c2c1CCC2	?	?
61	COc1cn(CC(=O)Nc2ccccc2)c(CN2CCCCC2)cc1=O	-7%	?
62	Cc1ccc(-n2nc3c(N4CCCC(C(=O)NCc5ccccc5C)C4)nnc(C)c3c2C)cc1 (stereo not given)	-5%	?
63	O=C(Cn1cc(SCc2cccc(Cl)c2)c2ccccc21)N1CCOCC1	40%	?
64	CCc1ccccc1NS(=O)(=O)c1ccc2[nH]cc(C(=O)N(CC)Cc3ccccc3)c(=O)c2c1	5%	0%
65	Cc1ccc(NC(=O)CC2Nc3cc(C)c(C)cc3NC2=O)c(C)c1 (stereo not given)	-27%	?
66	O=c1c(=O)n(-c2ccccc2)ccn1Cc1cccc(C(F)(F)F)c1	-26%	-11%
67	CCOc1ccc(C(=O)NCCc2sc(-c3ccc(C)cc3)nc2C)cc1	-19%	-84%
68	CCCCNC(=O)CN1C(=O)c2cccnc2Sc2ccccc21	-14%	-5%
69	CNC(=O)COc1ccc(NC(=O)c2ccc(-c3nn(C)c(=O)c4ccccc34)cc2)cc1	-11%	0%
70	Cc1cccc(C(=O)NCc2nc3ccccc3n2Cc2ccccc2Cl)c1	-8%	-1%
71	CCOc1ccc(NC(=O)CSc2nc3ccsc3c(=O)n2CCC(C)C)cc1	3%	-22%
72	CC(=O)c1ccc(NC(=O)COCc2cc(-c3ccco3)on2)cc1	-10%	-15%
73	CCCCN(CC)C(=O)c1nn(C)c2c1CSc1ccccc1-2	-15%	-14%
74	CCC(=O)N1CCc2cc(S(=O)(=O)NC(C(=O)Nc3ccc(C(C)=O)cc3)C(C)C)ccc21 (stereo not given)	8%	-33%
75	COc1ccc(C(=O)CCC(=O)Nc2ccc(OC)c(Cl)c2)cc1	0%	5%
76	CC1CN(S(=O)(=O)c2ccc3c(c2)NC(=O)CC(=O)N3)c2ccccc2O1 (stereo not given)	5%	-13%
77	COc1cccc(CNS(=O)(=O)c2cnc(N)nc2)c1	-4%	0%
78	Cc1ccc(Cl)cc1Nc1nn2c(=O)c3ccc(C(=O)Nc4ccc(F)cc4)cc3nc2s1	-1%	15%
79	CCOc1ccc(C(=O)Nc2ccc3oc(-c4ccc5ccccc5c4)nc3c2)cc1	16%	3%
80	CCOc1ccc(Nc2c(S(=O)(=O)c3ccccc3)cnc3ccc(F)cc23)cc1	?	?
81	CCOc1ccc2nc(N3CCN(C(=O)C(C)C)CC3)sc2c1	-11%	-14%
82	CCn1cc(C(=O)NCc2ccccc2Cl)c(=O)c2cc(S(=O)(=O)N3CCOCC3)ccc21	-3%	-24%
83	O=C(Cn1cnc2c(oc3ccccc32)c1=O)Nc1ccccc1C(F)(F)F	-8%	-4%
84	Fc1ccc(-c2noc3ncnc(NC4CCCCC4)c23)cc1	?	12%
85	COc1cccc(C(=O)Nc2cccc(C(=O)OCc3cc(=O)n4nc(C(C)C)sc4n3)c2)c1	19%	2%
86	O=C(NCC(c1cccs1)S(=O)(=O)c1cccs1)c1ccc(C(F)(F)F)cc1 (stereo not given)	?	?
87	O=C(Nc1ccc2nc(SCc3ccccc3)sc2c1)c1ccccc1F	-26%	-4%
88	CCC1CCCCN1S(=O)(=O)c1ccc(N2CCCCS2(=O)=O)cc1 (stereo not given)	-29%	-8%
89	Cc1ccc(CSC2=Nc3ccccc3C3=NC(CCC(=O)N4CCN(c5ccccc5)CC4)C(=O)N23)cc1 (stereo not given)	10%	-30%
90	CCOc1ccc(CCNC(=O)CSc2nnnn2-c2ccc(C)cc2C)cc1OCC	-24%	-4%
91	Clc1ccc(N2CCN(Cc3nnc(-c4ccc5c(c4)OCO5)o3)CC2)cc1	-7%	?
92	Cc1ccc(C)c(Cn2c3ccccc3c3cnn(CC(=O)NC4CCCCCC4)c(=O)c32)c1	22%	0%
93	COc1cc(Cl)c(C)cc1NC(=O)c1c(C)oc2nc(C)nc(N3CCCC3)c12	14%	-21%
94	CCOc1ccc(C(=O)c2cn(CC(=O)Nc3ccc(F)c(F)c3)c3cc4c(cc3c2=O)OCCO4)cc1	?	-38%
95	O=C(Cn1ccc2cc(S(=O)(=O)N3CCCCC3)ccc21)NCc1cccc(Cl)c1	?	?
96	Cn1c(SCc2ccccc2Cl)nc2c([nH]c3ccccc32)c1=O	-7%	-8%
97	COc1ccc(C)cc1NC(=O)CCNS(=O)(=O)c1cccc2nonc12	-2%	-1%
98	CCOc1ccc(-c2noc(CSc3nnc(-c4ccccc4)n3-c3ccccc3)n2)cc1	?	?
99	CC(C)(N)C(=O)N[C@H](COCc1ccccc1)C(=O)N1CCC2(CC1)CN(S(C)(=O)=O)c1ccccc12	4%	.
100	COC(=O)c1cc2occc2n1Cc1ccc(F)cc1Cl	-14%	-6%

More entries follow:
No.	Structure	HTT promoter inh	PMP22 txn
101	COc1ccccc1CNC(=O)Cc1c(C)c2c(cc(C)c3c(C)coc32)oc1=O	-4%	2%
102	Cn1ncc2c(N3CCN(c4ccccc4Cl)CC3)ncnc21	?	-41%
103	OC(c1cc(C(F)(F)F)nc2c(C(F)(F)F)cccc12)C1CCCCN1 (stereo not given)	-19%	.
104	CC(=O)c1nn(-c2ccc(OC(F)(F)F)cc2)nc1Nc1ccc(C)cc1	-7%	2%
